Source: PubChem BioAssay
VDR inh – Inhibitors of the vitamin D receptor (VDR): qHTS; VDR-SRC2-3 peptide fluorescence polarization, 2 h; hit rate 0.93% among 400,000; Potency, µM, for the others: max response, negative = inhibition, actives largely listed as inhibitors; active means well fitted inhibition curve with a large enough effect; inconclusive means small, poorly fitted or top-dose-only effect, or another doubt; inactive means no such curve, though single readings can be large or run the other way; further: series mostly up to about 120 µM
Target sequence (P11473 whole entry, looked up): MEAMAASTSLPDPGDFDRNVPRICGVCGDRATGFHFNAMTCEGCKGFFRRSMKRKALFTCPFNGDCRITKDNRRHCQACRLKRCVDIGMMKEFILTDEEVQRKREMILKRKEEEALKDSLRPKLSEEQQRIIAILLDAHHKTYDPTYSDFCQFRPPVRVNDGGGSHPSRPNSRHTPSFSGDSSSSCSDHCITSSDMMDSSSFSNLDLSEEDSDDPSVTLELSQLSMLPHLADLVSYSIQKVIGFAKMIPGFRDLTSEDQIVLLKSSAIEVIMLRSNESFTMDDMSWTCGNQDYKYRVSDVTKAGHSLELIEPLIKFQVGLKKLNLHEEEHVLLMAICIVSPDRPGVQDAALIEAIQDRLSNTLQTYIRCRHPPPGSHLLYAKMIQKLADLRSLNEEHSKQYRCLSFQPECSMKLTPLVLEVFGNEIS
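Signal is fluorescence polarization, reporting how far test compounds block the interaction of VDR with the SRC2-3 coregulator peptide after a 2 h room-temperature incubation.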
Numbers without * were called inactive; ? = inconclusive; & = joins results of further samples; [ ] = another dose, or the depositor's remark. On the % scale 0 is the no-effect control and ±100 the full control effect; potency means the concentration at half of the fitted maximal effect. Some of the compounds tested; rates above refer to the full screens.

SMILES	VDR inh
CCCCNC(=O)N(O)C1N(/N=C/c2ccc(N(C)C)cc2)C(=S)SC1(C)C (stereo unspecified)	-10.7%
CC(C)(C)n1nnnc1C(c1cccs1)N(Cc1ccc(Cl)cc1)CC1CCCO1 (stereo unspecified)	5.1%
CCCCC1=NN2CCS(=O)(=O)N=C2S1	-16.4%
O=C1NC(=O)/C(=C\c2ccc(OCc3cccc([N+](=O)[O-])c3)cc2)N1	-10.9%
O=C(NNC(=S)Nc1ccccc1)NNC(=S)Nc1ccccc1	-7.1%
O=C1CC(N2CCN(c3ccccc3O)CC2)C(=O)N1Cc1ccccc1 (stereo unspecified)	9.9%
Cc1ccc(CONC(=O)c2ccc(Cl)cc2)cc1	7.9%
COc1cccc(-c2csc(-c3c(N)c(C(=O)c4ccccc4)n4ccccc34)n2)c1	8.5%
CCOC(=O)c1nn2c(C(F)(F)F)cc(-c3ccc(OC)cc3)nc2c1Br	5.9%
CCC(C)(CC(=O)N(C)CCC#N)c1ccccc1 (stereo unspecified)	14.1%
Cc1ccc2nc(SCC(=O)Nc3ccc(F)cc3F)[nH]c2c1	9.6%
Cc1ccccc1C(=O)N1CCC(C(=O)Nc2cc(C(F)(F)F)ccc2N2CCCC2)CC1	-13.2%
N#CC1=C(SCc2ccccc2)NC2=C(C(=O)CCC2)C1c1ccc2c(c1)OCO2 (stereo unspecified)	?
Cc1cn([C@H]2C[C@H](O)[C@@H](CCC(=O)NC(c3ccccc3)c3ccccc3)O2)c(=O)[nH]c1=O	-10.8%
Cc1ccc(NC(=O)Cn2c(=O)n(Cc3nc(C)no3)c(=O)c3cc4c(cc32)OCO4)c(Cl)c1	8.9%
COCC(=O)OCC(=O)Nc1cc(C)c(C)cc1[N+](=O)[O-]	-15.5%
O=c1oc2ccccc2c(NCc2ccccc2F)c1[N+](=O)[O-]	-9.0%
CC1C=CCC2C(=O)N(c3ccc(OC(=O)c4ccco4)cc3)C(=O)C12 (stereo unspecified)	7.5%
COc1ccccc1CNC(=O)c1cc2sccc2n1Cc1ccc(F)cc1	89.1µM*
COc1ccccc1OCCn1cc(C=O)c2ccccc21	4.8%
O=C(O)C1CCc2sc3[nH]c(=S)n(-c4ccccc4)c(=O)c3c21 (stereo unspecified)	-15.9%
Cn1nc([N+](=O)[O-])c(C(C#N)c2ccccn2)c(Cl)c1=O (stereo unspecified)	-5.6%
Cc1cccc(NC(=O)c2cc3c([nH]c2=O)CC(c2ccccc2)CC3=O)c1 (stereo unspecified)	8.7%
Cc1csc(=Nc2ccccc2)n1CCCN1CCCC1=O	13.6%
N#C/C(=N\Nc1ccc(S(=O)(=O)N2CCOCC2)cc1)C(N)=S	-19.7%

Carrying on:
SMILES	VDR inh
CN(C(=O)COC(=O)c1cccc(S(=O)(=O)N2CCCCCC2)c1)C1CCS(=O)(=O)C1 (stereo unspecified)	3.0%
Cc1cc(NC(=O)CSC2=NS(=O)(=O)c3cc(F)ccc3N2)no1	-7.7%
Cc1ccc(-c2nnn(CC(=O)N(CC(=O)NCC3CCCO3)c3ccccc3)n2)o1 (stereo unspecified)	11.6%
COc1ccc(-c2cc(C(F)(F)F)c3c(n2)sc2c(O)cc(=O)[nH]c23)c(OC)c1	-4.8%
COc1ccc(NC(=O)Nc2cccc(C(F)(F)F)c2)cn1	6.2%
CCCn1ncc(CN2CCC(n3nccc3NC(=O)c3ccccc3Cl)CC2)c1C	7.9%
Cc1cc(NC(=O)CS(=O)(=O)c2ccc(F)cc2)no1	-5.9%
CCN(CC)c1ccc2c(Cl)cc(=O)oc2c1	30.4%[activator]
Oc1c(C2=NCCNC(C(F)(F)F)=C2)ccc2ccccc12	22.3%
CC(C)CC(=O)c1c(O)c(C=O)c(O)c2c1O[C@@]1(C)[C@@H](C2)C[C@H]2C[C@@H]1C2(C)C	-2.0%
Cc1ccc(C)c(N(CC(=O)NC2CCCCC2)C(=O)c2snc(C(N)=O)c2N)c1	2.5%
Cc1ccnc(NC(=O)c2ccc(S(=O)(=O)N3CCC(C)CC3)cc2)c1	-9.8%
CCOc1cc(/C=N/NC(=O)c2cccnc2)ccc1OCC(N)=O	?
O=C(COC(=O)c1ccc(Br)o1)NC12CC3CC(CC(C3)C1)C2	-2.0%
Nc1ccc(-c2cn3cccnc3n2)cc1	?
Cc1cc(C)c2[nH]c(=O)c(C(c3nnnn3CC3CCCO3)N3CCCC(C)C3)cc2c1 (stereo unspecified)	-2.2%
CC(=O)c1cccc(NC(=O)N2CCC(c3ccc(C)cc3)C2)c1 (stereo unspecified)	-28.7%
COc1ccc(CCNC(=O)CNCC2CCCO2)cc1OC (stereo unspecified)	2.7%
O=C(N/N=C/c1cccs1)c1cc(-c2cccc3ccccc23)n[nH]1	-17.6%
O=C(CNC(=O)c1ccco1)Nc1ccc(Br)cc1	8.6%
O=C(COC(=O)CNC(=O)c1ccc(Cl)c([N+](=O)[O-])c1)NNC(=O)c1cccs1	-9.2%
CC1(C)CC2CC(C)(CN2C(=O)c2ccc([N+](=O)[O-])cc2[N+](=O)[O-])C1 (stereo unspecified)	-16.3%
O=c1c2oc3ccccc3c2n(Cc2ccc(Cl)cc2)c(=O)n1Cc1ccccc1	7.8%
Cc1cc(C)c(S(C)(=O)=O)c(N(C)NC(=O)c2c(F)cccc2F)n1	-4.9%
CNC(CC(C)C)C(=O)NC1C(=O)NC(CC(N)=O)C(=O)NC2C(=O)NC3C(=O)NC(C(=O)NC(C(=O)O)c4cc(O)cc(O)c4-c4cc3ccc4O)C(O)c3ccc(c(Cl)c3)Oc3cc2cc(c3OC2OC(CO)C(O)C(O)C2OC2CC(C)(N)C(O)C(C)O2)Oc2ccc(cc2Cl)C1O (stereo unspecified)	7.5%

Additional results follow.
SMILES	VDR inh
COc1cc(Nc2ncc3c(n2)CCN(Cc2ccc(OC(C)C)c(OC)c2)C3)cc(OC)c1	2.8%
O=C1c2ccccc2C(=O)N1Cc1nc2ccccc2c(=O)n1CCCN1CCOCC1	-0.1%
CS(=O)(=O)N(CC(=O)Nc1ccc2c(c1)OCCO2)Cc1ccccc1	3.4%
c1ccc(N2CCN(c3nc(-c4ccccn4)nc4ccccc34)CC2)cc1	-5.3%
COc1cc(/C=N/OCC(=O)NC2CCCCC2C)ccc1OCc1ccc(Cl)cc1 (stereo unspecified)	5.7%
CCC1(C)Cc2c(sc3[nH]c(=O)[nH]c(=O)c23)CS1 (stereo unspecified)	-6.4%
CCOC(=O)C1CCN(c2c(N3CCCC(C(=O)OCC)C3)c(=O)c2=O)CC1 (stereo unspecified)	-16.4%
Cc1ccc(CN2CCc3nc(N4CCN(C)CC4)ncc3C2)s1	3.6%
Cc1cc(C)cc(-n2c(O)c(C=NC3CCS(=O)(=O)C3)c3ccccc3c2=O)c1 (stereo unspecified)	22.1%
Nc1c(N(CCO)C(=O)C2CCCCC2)c(=O)[nH]c(=O)n1Cc1ccccc1	-7.2%
Cc1cc2c(c(=O)o1)C(CC(C)C)C(C#N)=C(N)O2 (stereo unspecified)	-12.1%
CC(CCc1ccccc1)NCC#N (stereo unspecified)	-0.5%
Cc1cc(C)c(NC(=O)Cn2c(=O)c3cccn3c3ccccc32)c(C)c1	19.8%&-1.8%
COc1ccccc1OCCSc1nnc(CNC(=O)c2ccco2)n1C	-11.6%
COc1cccc(-c2nc(SCC(=O)NCC3CCCO3)c(-c3ccc(Cl)cc3)[nH]2)c1 (stereo unspecified)	-11.0%
COc1ccc(Cl)cc1NC(=O)CCN1CCOCC1	-1.9%
CC1(C)CC(=O)CC(=O)/C1=N\Nc1c(Cl)cc(Cl)cc1Cl	-2.4%
CCCCC(=O)NC(=S)Nc1c(C)cc(Br)cc1C	-23.9%
CC(C)CN(CC(C)C)C(=O)COc1ccccc1C(N)=O	2.4%
CCCCSc1nc(N)nc2c1ncn2C1OC(CO)C(O)C1O (stereo unspecified)	8.9%
COc1ccccc1-c1cc(C(F)(F)F)nc(S(C)(=O)=O)n1	?
CCC(C)(C)NC(=O)CN(Cc1cccs1)C(=O)CNS(=O)(=O)c1ccc(C)cc1	-3.7%
Cc1oc(-c2cccs2)nc1CN1CCN(C(C)C)C(CCO)C1 (stereo unspecified)	-18.7%
CCOc1ccc(S(=O)(=O)NCc2ccc3c(c2)CCN3C(=O)c2ccc(C)cc2)cc1	3.1%
c1ccc(C[C@H]2CNCCN2CCCCC2CCCCC2)cc1	-2.3%

Reprinted from the part before: 5 entries, followed by the next part.
SMILES	VDR inh
COc1ccccc1-c1cc(C(F)(F)F)nc(S(C)(=O)=O)n1	?
CCC(C)(C)NC(=O)CN(Cc1cccs1)C(=O)CNS(=O)(=O)c1ccc(C)cc1	-3.7%
Cc1oc(-c2cccs2)nc1CN1CCN(C(C)C)C(CCO)C1 (stereo unspecified)	-18.7%
CCOc1ccc(S(=O)(=O)NCc2ccc3c(c2)CCN3C(=O)c2ccc(C)cc2)cc1	3.1%
c1ccc(C[C@H]2CNCCN2CCCCC2CCCCC2)cc1	-2.3%
O=C(Cn1cccc1)N1CCc2ccccc21	-10.3%
COc1ccc(C2N=C(Nc3nc4ccccc4o3)NC3=C2C(=O)CC(C)(C)C3)cc1 (stereo unspecified)	-1.9%
CCCCn1c(N)c(N(CCOC)C(=O)COC(=O)COc2ccc(CC)cc2)c(=O)[nH]c1=O	-4.0%
c1ccc2cc(-c3cc4ccccn4c3)ccc2c1	-26.2%
CCCNC(=O)Nc1cc(S(=O)(=O)CC)ccc1O	-2.3%
Cc1cc(CNC(=O)CC2C(=O)NCCN2Cc2ccccc2C(F)(F)F)nn1C (stereo unspecified)	-7.9%
CCOC(=O)C1CCN(Cc2cnc(Oc3ccc(OC)cc3)s2)CC1	7.1%
O=C(COC(=O)c1nc(Cl)ccc1Cl)NCc1cccs1	9.6%
Nc1cc(=O)[nH]c(SCC(=O)Nc2nnc(-c3ccccc3)s2)n1	-15.2%
Cc1ccccc1-c1nc(N2CCNCC2)c2ccccc2n1	-18.5%
O=C(OCCCc1cc2ccccc2c(=O)o1)c1ccc2c(c1)OCO2	0.4%
COCCNC(=O)/C(C#N)=C/c1ccc(OC(=O)c2cccs2)c(OC)c1	70.8µM*
N=c1c(C(=O)NCC2CCCO2)cc2c(=O)n3ccccc3nc2n1Cc1ccc(Cl)cc1 (stereo unspecified)	13.2%
Cc1ncoc1C(=O)Nc1ccccc1C(N)=O	5.5%
O=[N+]([O-])c1ccc(NN=Cc2cccc([N+](=O)[O-])c2)cc1	-12.9%
Cc1c(OCC(=O)Nc2cccnc2)ccc2c3c(c(=O)oc12)CCC3	16.3%
CCC(C)NC(=O)CSc1nc2cc3c(cc2c(=O)n1CCCCCC(=O)NCc1ccc(OC)cc1)OCO3 (stereo unspecified)	12.9%
CC(=N)C1=C(O)CC(c2ccccc2)CC1=O (stereo unspecified)	4.6%
CCCc1cc(=O)[nH]c(SCC(=O)N2CCCC2=O)n1	-8.5%
COc1ccc(CNC(=O)CCS(=O)(=O)c2ccc3c(c2)CCN3C(C)=O)cc1	-13.9%
O=C(NCCOC(=O)c1ccccc1)c1ccc([N+](=O)[O-])cc1	-7.8%
CCCCN(Cc1cc2ccccc2[nH]c1=O)C(=O)c1ccccn1	17.0%
CC(=O)NC(CC(=O)Nc1nc(-c2ccc(N(C)S(C)(=O)=O)cc2)cs1)c1ccccc1 (stereo unspecified)	23.1%
CC(C)(C)NC(=O)C1CC(=O)OC12CCCCC2 (stereo unspecified)	15.8%
Cc1cc(C)cc(OCC(=O)OCC(=O)c2c(N)n(C)c(=O)n(C)c2=O)c1	11.5%

Carrying on.
SMILES	VDR inh
Cc1ccc(-n2cnc3cc(C(=O)NC4CCCCCC4)ccc32)cc1Cl	12.1%
CCCc1nnc(NC(=O)CSc2ncn[nH]2)s1	-6.7%
OCC(O)C1OC(Nc2ccc(Br)cc2)C(O)C1O (stereo unspecified)	-6.5%
COc1ccc(CCNS(=O)(=O)c2cccs2)cc1	8.2%
NC(=O)c1ccc(NC(=O)COC(=O)c2ccc(Cl)nc2)cc1	8.9%
Cc1ccc(S(=O)(=O)CCC(=O)NCc2ccccc2)cc1	17.4%
O=C(CC1C(=O)NCCN1C(=O)c1ccc(F)cc1)OCc1ccccc1 (stereo unspecified)	12.8%
CCOc1ccccc1NC(=O)COC(=O)c1cccc(-c2ccc(OC(C)=O)cc2)c1	-0.7%
CC1CC(C)(C)CC2(C1)NC(=O)N(CC(=O)N(C)Cc1nc3ccccc3c(=O)[nH]1)C2=O (stereo unspecified)	-1.4%
COc1ccc(CNC(=O)CN2CCC(C(=O)c3ccc(OC)cc3)CC2)cc1	1.9%
CC1CN(C(=S)SCCN2Cc3ccccc3C2=O)CC(C)O1 (stereo unspecified)	0.1%
COc1ccc(O)c(C2=Nc3ccccc3N=C(c3ccco3)C2)c1	-6.8%
C(=N\Nc1nc(-c2ccccc2)cs1)/c1cccs1	18.9%
CCn1c(C)c(C)c2cc(C(=O)Nc3cccc(Cl)c3)ccc21	6.7%
CC(NC(=O)C1CCCCC1)c1ccc2c(c1)OCCO2 (stereo unspecified)	1.7%
COc1ccc(Cc2noc(CN3CCNC(=O)CC3)n2)cc1OC	6.0%
CC(=C1C(=O)c2ccccc2C1=O)N1CCN(c2ccccn2)CC1	-3.7%
CC(C)(C)C1CCc2c(sc(NC(=O)Cn3nnc(-c4ccccc4F)n3)c2C#N)C1 (stereo unspecified)	-13.0%
CS(=O)(=O)Nc1ccc(C(=O)NCCSC2CCCCC2)cc1	-18.7%
COC(=O)Cc1ccc(NC(=S)NC(C)(C)C)cc1	2.2%
